Screening results: PubChem BioAssay, National Center for Advancing Translational Sciences (NCATS)
D2 agonist: human D2 receptor agonism in beta-arrestin assay; 360,000 compounds, 0.084% hits; DiscoveRx PathHunter D2 beta-arrestin, luminescence, 90 min; 100% = 57 uM dopamine signal; P14416; AID 624465; activation, % (no concentration beside the values); in the data active = activation above about 40%; inconclusive = about 15% to 40%; inactive = below about 15%; note: compound concentration not given in the record; the text of the record calls up to 30% inactive
Target sequence (P14416 whole entry, looked up): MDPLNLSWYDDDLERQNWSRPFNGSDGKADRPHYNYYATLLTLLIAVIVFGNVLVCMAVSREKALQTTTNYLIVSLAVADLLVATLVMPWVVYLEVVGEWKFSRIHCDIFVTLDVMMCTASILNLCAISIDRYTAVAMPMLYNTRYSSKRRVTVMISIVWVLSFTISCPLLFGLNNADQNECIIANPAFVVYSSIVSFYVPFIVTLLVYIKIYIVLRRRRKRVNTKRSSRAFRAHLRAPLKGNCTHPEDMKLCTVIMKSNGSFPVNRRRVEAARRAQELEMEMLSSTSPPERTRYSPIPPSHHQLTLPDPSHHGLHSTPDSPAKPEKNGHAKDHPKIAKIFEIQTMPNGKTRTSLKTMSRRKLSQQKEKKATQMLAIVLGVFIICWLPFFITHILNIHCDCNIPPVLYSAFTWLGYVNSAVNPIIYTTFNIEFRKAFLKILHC
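Agonist mode: compounds alone added to overnight-plated D2 PathHunter cells for 90 min at 37 C, with 57 uM final dopamine (EC100) defining full response. Beta-arrestin recruitment detected by chemiluminescent reagent, read after 1 h at ambient temperature.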
TRPML1 ag: human mucolipin-1 channel agonism; Q9GZU1; AID 624414; activation, % (concentration not given with the values); 410,000 compounds, 0.12% hits; TRPML1-expressing cells, Ca2+ dye fluorescence, FDSS; host cell line not named in the record; reference of the full effect not given here; in the data active = activation above about 50%; inconclusive = about 30% to 50%; inactive = below about 30%; note: 0% is about no effect; the text of the record puts the active cut at 80%
Target sequence (Q9GZU1 whole entry, looked up): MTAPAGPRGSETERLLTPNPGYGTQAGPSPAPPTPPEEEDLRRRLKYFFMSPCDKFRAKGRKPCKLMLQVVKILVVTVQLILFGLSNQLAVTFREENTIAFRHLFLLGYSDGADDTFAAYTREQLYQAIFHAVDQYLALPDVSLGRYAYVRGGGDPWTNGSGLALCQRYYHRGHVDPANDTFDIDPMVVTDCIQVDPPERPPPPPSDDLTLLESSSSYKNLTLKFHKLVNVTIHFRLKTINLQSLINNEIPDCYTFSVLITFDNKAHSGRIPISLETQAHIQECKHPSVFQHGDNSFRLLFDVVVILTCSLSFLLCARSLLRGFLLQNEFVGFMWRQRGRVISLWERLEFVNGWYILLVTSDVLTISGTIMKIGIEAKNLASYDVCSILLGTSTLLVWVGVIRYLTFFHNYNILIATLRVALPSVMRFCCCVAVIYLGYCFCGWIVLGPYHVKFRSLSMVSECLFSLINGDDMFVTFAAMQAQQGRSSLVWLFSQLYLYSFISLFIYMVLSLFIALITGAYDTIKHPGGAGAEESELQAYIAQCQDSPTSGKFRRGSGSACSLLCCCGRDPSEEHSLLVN
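TRPML1-DL cells, Tet-induced overnight (~16 h, 37 degrees C), loaded 45-90 min at room temperature with Ca8 no-wash calcium dye plus quencher. FDSS fluorescence: 10 s baseline, compound pin-transfer, 110 s agonist read, then EC80 54-4 (4uM final) and 110 s antagonist read.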
TRPML1 blocker: human mucolipin-1 channel inhibition | Q9GZU1 | TRPML1-inducible cells, Ca2+ dye fluorescence, FDSS; hits give low values; inhibition of EC80 agonist-evoked calcium signal | activity change, negative = inhibition, % (concentration not given with the values) | 390,000 compounds, 0.02% hits; in the data active means activity change below about -50%; inconclusive means about -30% to -50%; inactive means above about -30%;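 note: stimulus is agonist 54-4 at its EC80 concentration; % is set by controls: 0 for no effect and ±100 for the full control effect; the text of the record puts the active cut at -80%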
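TRPML1-DL cells, Tet-induced overnight (~16 h, 37 °C) at 1,500 cells/well, were loaded with Ca8 no-wash dye plus quencher for 45-90 min at room temperature. Compounds were pinned during FDSS kinetic reading; agonist 54-4 at EC80 (4 uM final) then added.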
PINK1 expr mod: changes PINK1 expression | PINK1 immunofluorescence, high-content cytometry, 24 h | Potency, µM (titrated, usually from 76.6 µM), for the others: at the top dose activation (PINK1 increase), hits mostly activators | 410,000 compounds, 0.2% hits | AID 624263; active = well fitted activation curve with a large enough effect; inconclusive = small, poorly fitted or top-dose-only effect; inactive = flat fitted curve, though single readings scatter; cell line not stated here;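 note: potency is the fitted concentration of half-maximal effect; % of control where 0% means no effect; nearly all actives have a fitted effect of over 65% in size; a mitochondrial uncoupler was the plate control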
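Cells are seeded, rested 12 hours, then given compound at five concentrations or DMSO for 24 hours. After fixation, blocking and antibody staining, PINK1 amount and mitochondrial localization are scored; CCCP serves as control.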
D2 PAM: potentiates the human D2 dopamine receptor allosterically; potentiation, % (test concentration not listed); DiscoveRx D2 beta-arrestin cells, luminescence, 90 min; 100% = 57 uM dopamine signal; 360,000 compounds, 0.23% hits; active = potentiation of 50% or more; inconclusive = 30% to 50%; inactive = 30% or less;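 note: compound concentration not given in the record; tested on top of an EC20 dose of dopamine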
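D2 cells co-treated with compound plus 50 nM dopamine (EC20) for 90 min at 37 deg C to detect potentiation. Beta-arrestin recruitment was read as enzyme-fragment luminescence after 1 h at ambient temperature. Full response was set by 57 uM dopamine.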
Six1-Eya2 inh: inhibitors of human Six1/Eya2 interaction; Q15475+O00167; AlphaScreen GST-Six1/His-Eya2 binding, biochemical; hits give low values; control for the full effect not named in the record; activity change, % (no concentration beside the values); 360,000 compounds, 0.56% hits; AID 651725; in the data active = activity change below about -65%; inconclusive = about -30% to -65%; inactive = above about -30%; note: % is set by controls: 0 for no effect and ±100 for the full control effect
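Compounds are tested against tagged Six1 and Eya2 proteins bridged by glutathione donor and nickel acceptor beads; after a one-hour incubation at 37 °C without light, AlphaScreen emission is recorded.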
* marks the source's active call; other numbers are inactive results; ? = inconclusive; · = no result given; [ ] = remark or other dose.

#	molecule	D2 agonist	TRPML1 ag	TRPML1 blocker
1	COc1ccccc1NC(=O)COC(=O)C1CC2CCCC(C1)C2=O (configuration not stated)	1.2	-0.8	7
2	O=C(N[C@@H](Cc1ccccc1)C(=O)OCc1ccccc1)c1nc[nH]c1C(=O)N[C@@H](Cc1ccccc1)C(=O)OCc1ccccc1	1.3	-0.1	3
3	OCCOCCn1c(C(CO)Nc2nc(-c3ccccc3Br)cs2)nc2ccccc21 (configuration not stated)	-1.9	-0.7	4
4	O=C(O)CCCCCN1C(=O)C(O)=C(C(=O)/C=C/c2ccccc2)C1c1ccc2c(c1)OCO2 (configuration not stated)	-5.0	0.5	-2
5	Cc1cc(C(=O)OCC(=O)c2cccs2)ccc1[N+](=O)[O-]	-3.3	1.4	15
6	CC(=O)c1ccc(Nc2nc(NCCO)nc(OC(C(F)(F)F)C(F)(F)F)n2)cc1	3.0	-0.4	-16
7	COc1ccc(C(=O)O)cc1S(=O)(=O)N(C)CCc1cccnc1	0.7	-0.3	-16
8	NC(=S)NNc1ccc(Cl)c(Cl)c1	11	0.9	24

#	PINK1 expr mod	D2 PAM	Six1-Eya2 inh
1	6.8%	0	1
2	-1.0%	-9	-9
3	0.7%	-8	-10
4	1.0%	-2	-13
5	-1.4%	-12	-23
6	1.5%	7	-12
7	1.2%	-14	4
8	-0.2%	5	0

The results go on:
#	molecule	D2 agonist	TRPML1 ag	TRPML1 blocker
9	COc1ccc(Cc2nnc(NC(=O)c3ccco3)s2)cc1OC	-0.3	0.0	3
10	COc1ccc2nc(NC(=O)CSCC(=O)Nc3cc(C)on3)sc2c1	0.3	2.3	-5
11	CCCCOC(=O)CSC(=S)N(C)Cc1cccs1	-3.5	1.8	?
12	COc1ccc(/[N+]([O-])=C/c2ccco2)cc1	6.4	0.1	2
13	COc1ccccc1/C=C/C(=O)Nc1cccnc1	0.9	0.2	1
14	CCC(=O)Nc1ccc(NC(=O)c2oc3ccccc3c2C)cc1	4.1	·	·
15	CC(=O)Nc1c(C(=O)Nc2ccc3c(c2)OCO3)oc2ccccc12	-3.8	-0.6	-3
16	COc1cccc(C(=O)N[C@@H](CCSC)c2nc3ccccc3[nH]2)c1	-1.3	1.9	0

#	PINK1 expr mod	D2 PAM	Six1-Eya2 inh
9	-0.3%	1	2
10	-2.9%	-16	-4
11	1.7%	-9	77
12	0.9%	0	-1
13	-0.6%	-5	11
14	2.5%	-12	4
15	-1.3%	-49	-3
16	1.7%	-20	-1

Carrying on.
#	molecule	D2 agonist	TRPML1 ag	TRPML1 blocker
17	O=C(Nn1nnnc1Nc1ccccc1)C12CC3CC(CC(C3)C1)C2	2.0	1.2	-17
18	Cc1cc(C)c(OCCN2CCOCC2)c(Cl)c1	1.0	-0.1	-5
19	Cc1noc(C)c1S(=O)(=O)N1CCC(C(=O)N2CCC(C)CC2)CC1	-4.0	0.2	-4
20	COC(=O)c1ccc(NC(=O)c2c(-c3ccccc3)c(-c3ccccc3)nn(C)c2=O)cc1	·	1.3	-23
21	CCOC(=O)[C@@H]1[C@H]2COc3ccccc3[C@H]2N2C(=O)N(c3ccc(F)cc3)C(=O)[C@]12C	-1.8	-0.7	6
22	CCC(=O)N1CCCC1(C)C(=O)Nc1ccc(C)c(C)c1 (configuration not stated)	-3.2	-0.3	·
23	COc1ccc(Br)cc1CSC(=N)N	-0.1	0.6	9
24	Cc1cc2oc(C(=O)Nc3ccc(S(=O)(=O)N(C)Cc4ccccc4)cc3)cc(=O)c2cc1C	·	0.5	-11

#	PINK1 expr mod	D2 PAM	Six1-Eya2 inh
17	1.0%	3	3
18	-1.3%	-7	6
19	-1.1%	-16	17
20	0.5%	·	·
21	-0.9%	-9	-12
22	1.2%	-16	-2
23	1.4%	-6	6
24	1.5%	·	·

Of the compounds above, 2 have fluorine.
#	molecule	D2 agonist	TRPML1 ag	TRPML1 blocker
6	CC(=O)c1ccc(Nc2nc(NCCO)nc(OC(C(F)(F)F)C(F)(F)F)n2)cc1	3.0	-0.4	-16
21	CCOC(=O)[C@@H]1[C@H]2COc3ccccc3[C@H]2N2C(=O)N(c3ccc(F)cc3)C(=O)[C@]12C	-1.8	-0.7	6

#	PINK1 expr mod	D2 PAM	Six1-Eya2 inh
6	1.5%	7	-12
21	-0.9%	-9	-12

Continuation.
#	molecule	D2 agonist	TRPML1 ag	TRPML1 blocker
25	Cc1ccccc1-c1noc(-c2ccc(NCC3CCCO3)c([N+](=O)[O-])c2)n1 (configuration not stated)	·	-0.7	11
26	Cc1cc(C)cc(NC(=O)C2CCN(S(=O)(=O)c3c(C)n[nH]c3C)CC2)c1	1.2	2.6	8
27	COc1ccc(CSCC(=O)N/N=C/c2ccc(OCC(=O)NCc3ccco3)cc2)cc1	-1.1	2.3	-4
28	O=c1ccc(S(=O)(=O)N2CCCC2)cn1Cc1ccc(F)cc1	-1.7	-0.1	2
29	COc1ccc(NC(=O)C2CCCN(C)C2)cc1OCC(C)C (configuration not stated)	1.4	0.4	15
30	Cc1cccc(C)c1NC(=O)Cn1c(=O)n(CCCC(=O)NC2CCN(Cc3ccccc3)CC2)c(=O)c2ccccc21	0.1	0.0	-18
31	Cc1ccc(CNS(=O)(=O)c2ccc3oc(C(=O)O)c(C)c3c2)cc1	0.7	-0.2	5
32	CCOC(=O)c1ccc(Nc2nc(C)nc3c2nnn3Cc2ccccc2)cc1	6.0	·	·

#	PINK1 expr mod	D2 PAM	Six1-Eya2 inh
25	0.8%	·	·
26	0.6%	-19	7
27	-0.7%	-1	-16
28	1.8%	-2	0
29	-1.6%	5	10
30	1.5%	-4	1
31	-0.5%[38.3 µM]	5	-1
32	8.1%	?	-2

New compounds follow
#	molecule	D2 agonist	TRPML1 ag	TRPML1 blocker
33	Cc1cccc(-c2nc(SCCCOc3ccc(Cl)c(C)c3)n3[nH]c(=O)cc3n2)c1	·	-0.7	-3
34	Clc1ncc(CN2CCN(Cc3ccccc3)CC2)s1	-0.5	-1.0	-12
35	CC(=O)Nc1c2c(nn1-c1ccc(Cl)cc1)CSC2	-3.4	-0.3	-23
36	COc1ccc(-c2noc(CCC(=O)NCc3cc(Br)ccc3OC)n2)cc1	1.5	1.7	-2
37	Cc1nc(C)c(C(=O)OCC(=O)NCc2ccccc2)s1	7.5	-0.6	5
38	CCC(C)NC(=O)C1CCN(CCCc2ccccc2)CC1 (configuration not stated)	-4.1	0.2	2
39	CCc1ccc(S(=O)(=O)N(C(=O)c2ccncc2)c2ccc3oc(C)c(C(=O)OC)c3c2)cc1	·	-0.3	26
40	CCN(CC)CCCNC(=O)C1CCC(CNS(=O)(=O)c2ccc(Cl)cc2)CC1 (configuration not stated)	-12	3.4	-8

#	PINK1 expr mod	D2 PAM	Six1-Eya2 inh
33	0.6%	·	·
34	-1.3%	-33	-2
35	0.9%	-8	1
36	1.2%	-11	-5
37	1.0%	1	-1
38	-0.6%	-9	-5
39	8.5%	·	·
40	-2.3%	-2	3

(listing goes on)
#	molecule	D2 agonist	TRPML1 ag	TRPML1 blocker
41	CC1(C)C(=O)OC(c2cccc([N+](=O)[O-])c2)C2(CCCCC2)C1=O (configuration not stated)	-2.7	0.7	25
42	CC1CC(=O)c2cnc(N3CCOCC3)nc2C1 (configuration not stated)	-4.4	0.9	9
43	O=C(N/N=C\C=C\c1ccc([N+](=O)[O-])o1)c1cccs1	3.1	2.8	-19
44	COc1ccc(C(=O)N2CC(=O)N(CCc3ccccc3)C(=O)C2)cc1OC	-1.5	0.0	-16
45	O=C(O)c1cc(O)ccc1N=Nc1ccccc1	8.8	-0.6	-2
46	Cn1nc([N+](=O)[O-])nc1Oc1ccccc1F	-1.9	0.1	-18
47	COc1cc(C2NC(=O)NC(C)=C2C(=O)OCc2ccccc2)ccc1O (configuration not stated)	-4.3	0.2	16
48	CCCCn1nc(NC(=O)COC)c2cc3ccc(C)cc3nc21	1.0	1.8	-11

#	PINK1 expr mod	D2 PAM	Six1-Eya2 inh
41	2.1%	-1	-2
42	?	-8	2
43	-0.2%	-2	-18
44	1.0%	1	0
45	7.8%	-4	-1
46	1.1%	0	12
47	2.2%	-16	-27
48	1.3%	-4	38

Next section
#	molecule	D2 agonist	TRPML1 ag	TRPML1 blocker
49	COc1cccc(C2NC(=O)NC(O)(C(F)(F)F)C2C(=O)c2cccnc2)c1OC (configuration not stated)	-0.5	-0.9	1
50	COc1ccc(OC(C)C(=O)NCc2cccnc2)cc1 (configuration not stated)	-1.7	0.0	11
51	COC(=O)c1nc(-c2ccccc2)n[nH]1	1.6	-0.1	-3
52	O=C(NC1CCCCC1)C(c1ccccc1)N1CCCC1 (configuration not stated)	-1.1	0.5	35
53	Cc1cc(C)cc(NC(=O)CN2CCC(NC(=O)c3ccccc3F)CC2)c1	-3.6	0.0	1
54	COc1ccc(/C=C(/NC(=O)c2ccco2)C(=O)NCc2ccco2)cc1	-1.2	0.0	17
55	Cc1ccccc1Nc1nc2nonc2nc1N1CCOCC1	0.3	1.1	18
56	CCn1cc(CN2CCCC(C(=O)Nc3cccc(-c4cc5ccccc5[nH]4)c3)C2)c(C)n1 (configuration not stated)	-1.1	0.2	-3

#	PINK1 expr mod	D2 PAM	Six1-Eya2 inh
49	1.0%	2	2
50	-0.2%	-13	-10
51	·	-1	2
52	0.3%	-15	9
53	-1.1%	-52	-1
54	2.5%	0	-2
55	2.1%	-3	0
56	3.0%	-14	-12

An excerpt from above in order of molecular weight, ascending:
#	molecule	D2 agonist	TRPML1 ag	TRPML1 blocker
52	O=C(NC1CCCCC1)C(c1ccccc1)N1CCCC1 (configuration not stated)	-1.1	0.5	35
53	Cc1cc(C)cc(NC(=O)CN2CCC(NC(=O)c3ccccc3F)CC2)c1	-3.6	0.0	1
49	COc1cccc(C2NC(=O)NC(O)(C(F)(F)F)C2C(=O)c2cccnc2)c1OC (configuration not stated)	-0.5	-0.9	1

#	PINK1 expr mod	D2 PAM	Six1-Eya2 inh
52	0.3%	-15	9
53	-1.1%	-52	-1
49	1.0%	2	2

Next records follow.
#	molecule	D2 agonist	TRPML1 ag	TRPML1 blocker
57	CC1(C)CC(NC(=S)Nc2ccc(S(N)(=O)=O)cc2)CC(C)(C)N1	-1.8	0.3	-3
58	COc1ccc(CCNC(=O)C(C)Sc2ccccc2)cc1OC (configuration not stated)	1.6	0.3	1
59	COc1ccc(CNc2oc(COc3ccccc3Cl)nc2C#N)cc1	-0.5	0.7	14
60	CCCN1CCC(NC(=O)Cc2cccc(C)c2)CC1	-0.5	0.0	17
61	CC[C@H](C)[C@H]1CNC(=O)C(=O)N1CC1CCN(CCc2ccccc2)CC1	-1.8	-0.2	0

#	PINK1 expr mod	D2 PAM	Six1-Eya2 inh
57	-0.3%	-1	-3
58	-1.5%	-10	3
59	6.5%	-20	-15
60	2.5%	-7	1
61	1.3%	-13	2
